From PubChem
UUG fidelity = modulators of start codon recognition fidelity in yeast; 350,000 compounds, 0.13% hits; S. cerevisiae UUG-firefly luciferase reporter, luminescence/redox ratio; activity score, % at 18.7 µM;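 active = replicate mean at a twofold rise or more, about +100% in these data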;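 also: firefly luciferase made from a UUG start codon reports start codon fidelity; reporter light over untreated wells divided by growth signal over untreated wells; some hits fall short of that in this replicate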
HIV Env fusion = HIV envelope-mediated fusion inhibition. HeLa-JRFL Env/CEM21 cell fusion, luciferase. inhibition, % at 12.3 µM. 360,000 compounds, 1.1% hits. AID 651610;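 active = mean replicate inhibition score of at least 50 and every replicate individually at or above 50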;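 also: 0% = plate neutral controls and 100% = maraviroc near 300 nM; one replicate is shown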
Starred values were filed as active, the others as inactive; [ ] = dose if it differs, or a comment. A portion of the library. The share of hits here may be higher or lower than overall.

Value order – UUG fidelity | HIV Env fusion
> C[C@@H]1CN([C@H](C)CO)S(=O)(=O)c2ccc(C#Cc3ccc(F)cc3)cc2O[C@@H]1CN(C)C
  0 | -16[16.7 µM]
> CC(C)NC(=O)Nc1ccc2c(c1)C(=O)N([C@H](C)CO)C[C@H](C)[C@H](CN(C)S(=O)(=O)c1cccs1)O2
  1 | -39[16.7 µM]
> COc1ccc(S(=O)(=O)N(C)C[C@H]2OCCCC[C@H](C)Oc3ccc(NC(=O)Nc4ccccc4)cc3C(=O)N([C@@H](C)CO)C[C@@H]2C)cc1
  4 | -2[16.7 µM]
> O=C(C[C@H]1CC[C@H](NC(=O)Nc2cc(F)ccc2F)[C@@H](CO)O1)NCc1ccccn1
  -4 | 5[16.7 µM]
> C[C@@H]1CN([C@H](C)CO)C(=O)c2cc(C#CCN(C)C)cnc2O[C@H]1CN(C)C(=O)c1ccc2c(c1)OCO2
  7 | 0[16.7 µM]
> Cc1noc(C)c1NC(=O)Nc1ccc2c(c1)C(=O)N([C@@H](C)CO)C[C@@H](C)[C@@H](CN(C)S(=O)(=O)c1ccc(F)cc1)OCCCC[C@@H](C)O2
  -6 | -32[16.7 µM]
> Cc1noc(C)c1NC(=O)Nc1ccc2c(c1)CC(=O)N([C@@H](C)CO)C[C@H](C)[C@@H](CN(C)CC1CCCCC1)O2
  -10 | -11[16.7 µM]
> C[C@@H]1CN([C@H](C)CO)C(=O)Cc2cc(NC(=O)Nc3ccccc3)ccc2O[C@@H]1CN(C)S(=O)(=O)c1cn(C)cn1
  -10 | 7[16.7 µM]
> C[C@@H]1CN([C@H](C)CO)C(=O)Cc2cc(NC(=O)Cc3ccccc3)ccc2O[C@H]1CN(C)Cc1ccccc1
  -18 | 3[16.7 µM]
> N#C[C@H]1[C@H](c2ccc(C#Cc3ccc(F)cc3)cc2)[C@@H](CO)N1C(=O)C1CCCC1
  3 | 10[16.7 µM]
> CC(C)NC(=O)N[C@@H]1CC[C@@H](CCNC(=O)C2CCC2)O[C@H]1CO
  -12 | 5[16.7 µM]
> C[C@H]1C=C(C(=O)N2CCN(Cc3ccc4c(c3)OCO4)CC2)O[C@@H](OCCCCO)C1
  14 | 7[16.7 µM]
> C[C@@H]1CCCCO[C@@H](CN(C)Cc2ccc(C(F)(F)F)cc2)[C@@H](C)CN([C@H](C)CO)C(=O)c2cc(NC(=O)c3ccncc3)ccc2O1
  -7 | -6[16.7 µM]
> C[C@H](CO)N1C[C@H](C)[C@H](CN(C)Cc2ccc(Cl)c(Cl)c2)Oc2ccc(NC(=O)CCCCCC(=O)Nc3ccccc3N)cc2CC1=O
  4 | 24[16.7 µM]
> O=C(N[C@@H]1CC[C@H](CCNS(=O)(=O)c2ccccc2Cl)O[C@@H]1CO)c1ccccc1
  -4 | 4[16.7 µM]
> CCC(=O)N[C@@H]1C=C[C@H](CC(=O)NCC2CCCCC2)O[C@@H]1CO
  -8 | -3[16.7 µM]
> C[C@H]1CCCCO[C@@H](CN(C)S(=O)(=O)c2cn(C)cn2)[C@@H](C)CN([C@@H](C)CO)C(=O)c2cc(NC(=O)Nc3ccc(F)cc3)ccc2O1
  33 | 11[16.7 µM]
> C[C@@H]1CN([C@H](C)CO)C(=O)Cc2cc(NC(=O)Nc3cccc4ccccc34)ccc2O[C@@H]1CN(C)CC1CCCCC1
  2 | -12[16.7 µM]
> Cc1ccc(S(=O)(=O)N[C@H]2CC[C@@H](CC(=O)NC3CCCCC3)O[C@H]2CO)cc1
  9 | -15[16.7 µM]
> C[C@@H]1CCCCO[C@H](CN(C)C(=O)Nc2ccc3c(c2)OCO3)[C@H](C)CN([C@@H](C)CO)C(=O)c2cc(NC(=O)Nc3ccccc3)ccc2O1
  2 | -47[16.7 µM]
> C[C@H]1CN([C@@H](C)CO)C(=O)Cc2cc(NC(=O)C3CC3)ccc2O[C@@H]1CN(C)CC1CCCCC1
  -17 | 2[16.7 µM]
> C[C@H](CO)N1C[C@H](C)[C@@H](CN(C)Cc2ccc(Cl)c(Cl)c2)Oc2ccc(NS(=O)(=O)c3ccc(Cl)cc3)cc2CC1=O
  0 | 22[16.7 µM]
> Cc1noc(C)c1S(=O)(=O)N(C)C[C@H]1Oc2ccc(N(C)C)cc2CC(=O)N([C@H](C)CO)C[C@H]1C
  24 | 1[16.7 µM]
> C[C@H]1CCCCO[C@@H](CN(C)C(=O)CCCN(C)C)[C@@H](C)CN([C@@H](C)CO)C(=O)c2cc(NC(=O)Cc3ccccc3)ccc2O1
  7 | 14[16.7 µM]
> C[C@H](CO)N1C[C@H](C)[C@H](CN(C)Cc2ccc(Oc3ccccc3)cc2)Oc2ccc(NC(=O)C3CC3)cc2CC1=O
  10 | -39[16.7 µM]
> CO[C@H]1CN(C)C(=O)c2cc(NC(=O)c3ccccc3)ccc2OC[C@@H](C)N(C(=O)C2CC2)C[C@H]1C
  3 | -10[16.7 µM]
> O=C(C[C@@H]1CC[C@H]2[C@@H](COC[C@H](O)CN2S(=O)(=O)c2ccccc2)O1)N1CCOCC1
  -15 | -14[16.7 µM]
> C[C@@H]1CN([C@@H](C)CO)C(=O)Cc2cc(NC(=O)Cc3cn(C)c4ccccc34)ccc2O[C@H]1CN(C)CC1CC1
  2 | -2[16.7 µM]
> Cc1ccc(S(=O)(=O)N[C@H]2C=C[C@@H](CC(=O)NC3CCCCC3)O[C@H]2CO)cc1
  -6 | -12[16.7 µM]
> C[C@@H]1CN([C@H](C)CO)C(=O)c2cc(NC(=O)Nc3ccc4c(c3)OCO4)ccc2O[C@@H](C)CCCCO[C@H]1CN(C)S(=O)(=O)c1ccc(Cl)cc1
  -20 | -11[16.7 µM]
> C[C@H]1CN([C@@H](C)CO)C(=O)c2cc(NC(=O)Cc3ccccc3)ccc2O[C@@H]1CN(C)Cc1ccccc1
  -3 | -8[16.7 µM]
> O=C(C[C@H]1C[C@@H]2c3cc(NC(=O)c4ccc5c(c4)OCO5)ccc3O[C@@H]2[C@H](CO)O1)NCC1CC1
  -12 | -1[16.7 µM]
> CNC[C@@H]1Oc2c(NS(=O)(=O)c3cn(C)cn3)cccc2C(=O)N([C@@H](C)CO)C[C@H]1C
  -13 | 0[16.7 µM]
> CC(=O)N(C)C[C@H]1Oc2ncc(-c3cccnc3)cc2C(=O)N([C@H](C)CO)C[C@@H]1C
  -9 | 7[16.7 µM]
> C[C@H]1CN([C@@H](C)CO)C(=O)Cc2cc(NS(=O)(=O)c3ccc(F)cc3)ccc2O[C@H]1CN(C)Cc1ccc(Oc2ccccc2)cc1
  8 | -3[16.7 µM]
> C[C@@H]1CN([C@@H](C)CO)S(=O)(=O)c2ccc(C#Cc3cccnc3)cc2O[C@@H]1CN(C)C
  17 | -20[16.7 µM]
> CC(C)CC#Cc1cnc2c(c1)C(=O)N([C@@H](C)CO)C[C@@H](C)[C@H](CN(C)C(=O)c1ccccc1)O2
  23 | 19[16.7 µM]
> COc1ccc(S(=O)(=O)Nc2ccc3c(c2)C(=O)N([C@@H](C)CO)C[C@H](C)[C@@H](CN(C)S(=O)(=O)c2ccccc2)O3)cc1
  4 | -37[16.7 µM]
> Cc1ccccc1S(=O)(=O)NCC[C@@H]1CC[C@@H](NC(=O)C2CCCCC2)[C@H](CO)O1
  5 | -8[16.7 µM]
> CC(C)NC(=O)N(C)C[C@H]1Oc2cc(Br)ccc2S(=O)(=O)N([C@@H](C)CO)C[C@H]1C
  -2 | -3[16.7 µM]
> C[C@H](O)C#Cc1cnc2c(c1)C(=O)N([C@@H](C)CO)C[C@@H](C)[C@H](CN(C)Cc1ccc(-c3ccccc3)cc1)O2
  17 | -25[16.7 µM]
> CCC(=O)N(C)C[C@H]1Oc2cc(C#CC(C)(C)O)ccc2S(=O)(=O)N([C@H](C)CO)C[C@@H]1C
  0 | -4[16.7 µM]
> CN(C)C(=O)C[C@@H]1C[C@@H]2c3cc(NC(=O)Nc4ccccc4)ccc3O[C@@H]2[C@@H](CO)O1
  43* | 5[16.7 µM]
> Cc1noc(C)c1NC(=O)N1C[C@H](O)COC[C@@H]2O[C@@H](CC(=O)NCC3CC3)CC[C@H]21
  -3 | 1[16.7 µM]
> Cc1noc(C)c1NC(=O)Nc1ccc2c(c1)CC(=O)N([C@@H](C)CO)C[C@@H](C)[C@H](CN(C)S(=O)(=O)c1c(C)noc1C)O2
  1 | -1[16.7 µM]

Arranged by molar mass (lowest first): part of the list above
Value order – UUG fidelity | HIV Env fusion
> Cc1noc(C)c1NC(=O)N1C[C@H](O)COC[C@@H]2O[C@@H](CC(=O)NCC3CC3)CC[C@H]21
  -3 | 1[16.7 µM]
> CNC[C@@H]1Oc2c(NS(=O)(=O)c3cn(C)cn3)cccc2C(=O)N([C@@H](C)CO)C[C@H]1C
  -13 | 0[16.7 µM]
> CC(C)NC(=O)N(C)C[C@H]1Oc2cc(Br)ccc2S(=O)(=O)N([C@@H](C)CO)C[C@H]1C
  -2 | -3[16.7 µM]
> C[C@H](O)C#Cc1cnc2c(c1)C(=O)N([C@@H](C)CO)C[C@@H](C)[C@H](CN(C)Cc1ccc(-c3ccccc3)cc1)O2
  17 | -25[16.7 µM]

(continued)
Value order – UUG fidelity | HIV Env fusion
> COc1ccc(S(=O)(=O)N(C)C[C@@H]2OCCCC[C@@H](C)Oc3ccc(NC(=O)c4ccncc4)cc3C(=O)N([C@@H](C)CO)C[C@@H]2C)cc1
  25 | 6[16.7 µM]
> C[C@H]1CN([C@@H](C)CO)C(=O)Cc2cc(NC(=O)CCC(F)(F)F)ccc2O[C@@H]1CN(C)Cc1ccc(-c2ccccc2)cc1
  1 | -26[16.7 µM]
> C[C@@H]1CCCCO[C@H](CN(C)C(=O)Cc2ccccc2)[C@H](C)CN([C@@H](C)CO)C(=O)c2cc(NC(=O)Nc3ccc4c(c3)OCO4)ccc2O1
  -19 | 23[16.7 µM]
> CNC(=O)C[C@@H]1CC[C@H]2[C@H](COc3ccc(NS(=O)(=O)c4cccc(F)c4)cc3C(=O)N2C)O1
  -17 | -4[16.7 µM]
> C[C@@H]1CN([C@@H](C)CO)C(=O)Cc2cc(NC(=O)CCC(F)(F)F)ccc2O[C@H]1CN(C)Cc1ccc(-c2ccccc2)cc1
  8 | 29[16.7 µM]
> COc1ccc(NC(=O)Nc2ccc3c(c2)C(=O)N([C@H](C)CO)C[C@H](C)[C@H](CN(C)S(=O)(=O)c2cccs2)OCCCC[C@H](C)O3)cc1
  -6 | 11[16.7 µM]
> O=C(C[C@@H]1CC[C@@H]2[C@H](COC[C@@H](O)CN2Cc2ccccc2F)O1)NC1CCC1
  -8 | -12[16.7 µM]
> C[C@@H]1CN([C@H](C)CO)C(=O)c2cccc(NS(=O)(=O)c3ccc(F)cc3)c2O[C@H]1CN(C)CC1CC1
  -2 | 4[16.7 µM]
> C[C@@H]1CN([C@@H](C)CO)C(=O)c2cc(-c3cccnc3)cnc2O[C@@H]1CN(C)C(=O)C1CCOCC1
  -14 | -9[16.7 µM]
> C[C@@H]1CN([C@H](C)CO)C(=O)c2cccc(NC(=O)c3cnccn3)c2O[C@H]1CN(C)S(=O)(=O)c1ccc(Cl)cc1
  15 | 30[16.7 µM]
> C[C@H](CO)N1C[C@H](C)[C@H](CN(C)S(=O)(=O)c2ccccc2)Oc2ccc(NC(=O)Nc3ccccc3)cc2C1=O
  2 | 28[16.7 µM]
> C[C@@H]1CN([C@@H](C)CO)C(=O)Cc2cc(NC(=O)C3CCCCC3)ccc2O[C@@H]1CN(C)C
  11 | 6[16.7 µM]
> Cc1noc(C)c1NC(=O)N(C)C[C@@H]1Oc2ccc(NC(=O)Nc3ccccc3)cc2CC(=O)N([C@H](C)CO)C[C@H]1C
  5 | 23[16.7 µM]
> COc1ccc(NC(=O)N(C)C[C@@H]2Oc3ccc(NC(=O)Nc4ccccc4)cc3CC(=O)N([C@H](C)CO)C[C@H]2C)cc1
  10 | 21[16.7 µM]
> C[C@@H]1CN([C@@H](C)CO)S(=O)(=O)c2ccc(C#C[C@@H](C)O)cc2O[C@H]1CN(C)CC1CCOCC1
  -2 | 8[16.7 µM]
> CN1C(=O)c2cc(NC(=O)Cc3cccs3)ccc2OC[C@H]2O[C@H](CC(=O)O)CC[C@H]21
  0 | -28[16.7 µM]
> COCC#Cc1ccc2c(c1)O[C@H](CN(C)S(=O)(=O)c1cccc(F)c1)[C@H](C)CN([C@@H](C)CO)S2(=O)=O
  13 | 24[16.7 µM]
> C[C@H]1CN([C@@H](C)CO)S(=O)(=O)c2ccc(C#CC3(O)CCCC3)cc2O[C@H]1CN(C)C(=O)c1ccncc1
  -11 | -27[16.7 µM]
> CC(C)NC(=O)N(C)C[C@H]1OCc2cn(nn2)CCCC(=O)N([C@H](C)CO)C[C@@H]1C
  -6 | 10
> CCC(=O)N1C[C@H](C)[C@@H](OC)CN(C)C(=O)c2cc(NC(=O)Nc3ccccc3)ccc2OC[C@@H]1C
  -3 | 7[16.7 µM]
> C[C@@H]1CCCCO[C@@H](CN(C)S(=O)(=O)c2cn(C)cn2)[C@@H](C)CN([C@@H](C)CO)C(=O)c2cc(NS(=O)(=O)c3ccc(Cl)cc3)ccc2O1
  25 | -15[16.7 µM]
> C[C@H](O)C#Cc1cnc2c(c1)C(=O)N([C@H](C)CO)C[C@@H](C)[C@H](CN(C)C(=O)c1ccc(F)cc1)O2
  5 | 5[16.7 µM]
> COc1ccc(S(=O)(=O)Nc2cccc3c2O[C@@H](CN(C)Cc2ccc(Oc4ccccc4)cc2)[C@@H](C)CN([C@H](C)CO)C3=O)cc1
  3 | -12[16.7 µM]

With a hit mark in UUG fidelity, of those listed so far:
Value order – UUG fidelity | HIV Env fusion
> CN(C)C(=O)C[C@@H]1C[C@@H]2c3cc(NC(=O)Nc4ccccc4)ccc3O[C@@H]2[C@@H](CO)O1
  43* | 5[16.7 µM]
